High-throughput results: PubChem, several laboratories
Insulin prom inh = TRM-6 insulin promoter activity inhibition; TRM-6 cells (human fetal islet line), insulin promoter-eGFP reporter, imaging; reporter expression induced with tamoxifen; inhibition, % at 2 µM; hit rate 0.9% among 130,000; AID 1273;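 active = inhibition above the mean plus 3 SD, with well images judged a real hit on visual review, cut at about 60% in these data, passing the limit was not always enough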
GALR2 agonist = GALR2 (human) receptor agonism; GALR2-expressing cells, agonist activation read-out; AID 803; hit rate 0.48% among 140,000; O43603; activation, %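 (tested at 5 µM)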;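 active = above mean plus 3 SD of all compounds, about 5% in these data, not always enough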;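 also: 0% = vehicle buffer wells and 100% = reference agonist at full effect; tested in CHO reporter cells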
Target sequence (O43603 whole entry, looked up): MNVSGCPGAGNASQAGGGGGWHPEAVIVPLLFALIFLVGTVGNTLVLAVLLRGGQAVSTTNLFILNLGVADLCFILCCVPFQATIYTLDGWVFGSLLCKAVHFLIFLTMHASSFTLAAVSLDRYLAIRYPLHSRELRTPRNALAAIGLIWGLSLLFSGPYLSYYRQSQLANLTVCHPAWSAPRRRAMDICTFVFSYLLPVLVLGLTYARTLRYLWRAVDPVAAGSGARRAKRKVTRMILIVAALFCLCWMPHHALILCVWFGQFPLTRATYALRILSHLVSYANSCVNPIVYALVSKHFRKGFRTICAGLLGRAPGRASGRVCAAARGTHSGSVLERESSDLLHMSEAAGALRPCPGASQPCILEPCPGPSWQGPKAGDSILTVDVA
RGS16-Gao HTS = regulators of human RGS16-Galphao interaction; binding response (% of control), % at 10 µM; AID 1441; bead-based flow cytometry RGS16-Galphao binding, fluorescence; actives lie on both sides; hit rate 0.38% among 220,000;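 active = below 25% or above 175%, edge rows of some plates excepted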;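 also: Galphao activated by GDP with aluminum fluoride before binding; 100% = wells without compound and 0% = beads without RGS; some results beyond the cut were filed as inactive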
Target sequence (O15492 whole entry, looked up): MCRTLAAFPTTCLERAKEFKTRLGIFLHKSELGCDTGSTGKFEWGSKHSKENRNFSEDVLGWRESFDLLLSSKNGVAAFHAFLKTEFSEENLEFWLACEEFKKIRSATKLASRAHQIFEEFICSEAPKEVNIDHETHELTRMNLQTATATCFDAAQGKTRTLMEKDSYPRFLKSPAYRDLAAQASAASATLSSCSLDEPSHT
Target sequence (P09471 whole entry, looked up): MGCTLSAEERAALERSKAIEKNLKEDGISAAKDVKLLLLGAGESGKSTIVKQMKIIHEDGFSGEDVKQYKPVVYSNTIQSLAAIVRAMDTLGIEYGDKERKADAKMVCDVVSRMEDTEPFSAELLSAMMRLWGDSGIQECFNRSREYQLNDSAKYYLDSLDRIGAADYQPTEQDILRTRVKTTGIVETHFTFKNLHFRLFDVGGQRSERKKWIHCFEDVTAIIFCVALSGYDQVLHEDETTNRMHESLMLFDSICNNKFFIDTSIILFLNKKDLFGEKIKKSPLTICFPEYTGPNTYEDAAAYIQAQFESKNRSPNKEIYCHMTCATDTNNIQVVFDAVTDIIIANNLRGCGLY
HSV augment = increases HSV replication in cells. HSV replication augmentation in cells, fold increase. maximum fold increase. hit rate 0.005% among 220,000. AID 1956;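 active = peak rise of 1.5-fold or more in the series; tested in PC3 cells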;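 also: first round at 10 µM; read as green reporter fluorescence; hits show the peak of a series up to 25 µM; 1 = signal of infected wells without compound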
PKD1 kinase inh = PKD1 (human) kinase inhibition | inhibition, %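 (about 10 µM by stock and volumes)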 | Q15139 | PKD1 kinase fluorescence polarization assay | hit rate 0.056% among 200,000;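 active = inhibition of 50% or more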;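 also: controls were vehicle for no effect and a reference inhibitor for full effect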
Insulin prom inh cell count = recorded beside Insulin prom inh, whose call it bears; normalized cell count, %; measured here: cell count, toxicity; reference of the scale not given here;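 cells exposed to compound for 48 h; stained nuclei by imaging scaled within each plate; lower means fewer cells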
HSV augment primary fold = also measured in HSV augment; calls as there; fold increase; compound at 10 µM; measured here: primary screen fold increase 10 uM; tested in PC3 cells;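 GFP signal in the first replicate; 1 = infected wells without compound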
Numbers without * were called inactive; i = inactive; x = no result given. Hits appear at their usual frequency (roughly 1.3% active in at least one column).

Compound | Insulin prom inh | Insulin prom inh cell count | GALR2 agonist | RGS16-Gao HTS | HSV augment | HSV augment primary fold | PKD1 kinase inh
Cn1nc([N+](=O)[O-])c(C(C#N)c2nc3ccccc3n2C)c(Cl)c1=O (configuration not stated) | -6.2 | 120.2 | -0.2 | 96.6 | i | 1.02 | 11.2
CSc1nnc(-c2sccc2-n2cccc2)o1 | -20.0 | 151.6 | x | 99.1 | i | 0.86 | -0.4
COc1ccc(C(=O)COC(=O)c2ccc(NC(C)=O)cc2)cc1[N+](=O)[O-] | x | x | 3.3 | 102.1 | i | 0.88 | -5.2
CC(C)(C)NC(=O)CSCc1ccc(Br)cc1 | x | x | x | 100.4 | i | 1.1 | -8.9
Cc1nn(CC#N)c(=O)n1-c1cccc(F)c1 | -37.5 | 102.9 | -1.4 | 103.8 | i | 0.84 | -7.0
COCCNC(=O)CN1CCCCCC1 | -57.9 | 119.9 | x | 99.6 | i | 1.03 | -2.4
COc1cc(/C=C(\C#N)c2ccccn2)ccc1OCc1ccccc1Cl | x | x | -0.3 | 100.5 | i | 0.96 | 1.3
Cc1ccc(/C(N)=N/OC(=O)CCc2ccccc2)cc1 | 30.0 | 72.4 | -1.5 | 100.5 | i | 0.97 | -12.2
O=c1[nH]ncc(N/N=C\c2ccc(O)cc2O)c1Cl | 9.1 | 67.4 | x | 97.1 | i | 0.87 | -1.5
Cc1nonc1NCn1nnc2ccccc21 | -11.4 | 88.0 | -1.5 | 95.5 | i | 0.86 | -0.8
O=[N+]([O-])c1ccc(NCc2ccc(Cl)cc2)nc1 | x | x | x | 99.6 | i | 0.95 | x
COc1ccc(CC(NC(C)=O)C(=O)NC2CCN(C(=O)NCc3ccccc3)CC2)cc1OC (configuration not stated) | 6.7 | 98.4 | 0.4 | 106.8 | i | 0.86 | -14.8
CC(C)c1nc2sc3c(=O)[nH]c(=S)[nH]c3c2c2c1CCCC2 | x | x | x | 121.2 | i | 0.86 | x
CCOc1ccccc1C(=O)NCC(=O)OCC(=O)c1ccc2c(c1)OCCO2 | x | x | -0.1 | 96.5 | i | 0.77 | -9.2
Cc1cc(NCc2ccccn2)n2nc(C)c(-c3ccc(Cl)cc3)c2n1 | x | x | x | 96.1 | i | 0.6 | x
CC(=O)c1cn(-c2ccc(Cl)cc2)c(=O)n(Cc2ccc(F)cc2)c1=O | 17.6 | 63.1 | x | 98.2 | i | 1.19 | 2.2
COc1cccc(/C=N/NC(=O)c2cccs2)c1 | x | x | x | 101.4 | i | 0.92 | x
CCCCS(=O)(=O)Nc1ccc(Cc2ccncc2)cc1 | -50.0 | 55.2 | -1.7 | 101.3 | i | 0.98 | 1.0
CC(=O)N1CCc2cc(S(=O)(=O)NCCCOC(C)C)ccc21 | 31.0 | 101.3 | -0.7 | 92.8 | i | 1 | -2.4
O=C(c1nnc(-c2ccncc2)o1)c1ccccc1Cl | 15.2 | 93.9 | -3.0 | 100.8 | i | 0.73 | -0.9
Clc1ccc(-c2nnc(SCc3nc4ccccc4s3)o2)cc1 | -124.5 | 119.0 | -0.9 | 107.7 | i | 1.04 | -5.4
Cc1ccccc1C(=O)NNC(=O)Cc1ccccc1 | i | 25.4 | -2.7 | 98.8 | i | 0.86 | -6.2
CCCCn1c(N)c(N(CCC(C)C)C(=O)CSc2nnc(C)s2)c(=O)[nH]c1=O | 15.2 | 113.5 | -0.8 | 105.6 | i | 0.77 | 0.2
COc1ccccc1NC(=O)C1CCC(CNc2c(N3CCCCC3)c(=O)c2=O)CC1 (configuration not stated) | x | x | x | 101.7 | i | 0.94 | x
CC(=O)c1ccc(NC(=O)Nc2ccc([N+](=O)[O-])cc2C)cc1 | x | x | -1.7 | 103.8 | i | 0.9 | -12.4
CCOC(=O)c1cnc2ccc(C)cc2c1Sc1ccc(F)cc1 | x | x | -0.6 | 102.6 | x | x | -11.8
COc1cccc(CNCc2cccc(Br)c2)c1OC | x | x | x | 101.6 | i | 1 | -8.9
FC(F)(F)c1cccc(N2CCC(N=CN3CCCCCC3)=N2)c1 | x | x | x | 96.0 | i | 0.96 | 0.6
Cn1c(CNC(=O)c2ccc(Cl)cc2)nnc1SCC(=O)Nc1sc2c(c1C#N)CCCC2 | x | x | -2.1 | 107.2 | i | 0.97 | -4.7
N#C/C(=C\c1c(N2CCOCC2)nc2ccccn2c1=O)S(=O)(=O)c1ccccc1 | 6.7 | 69.2 | -2.0 | 100.7 | i | 1.04 | -1.2
Cc1csc(SCC(=O)NC23CC4CC(CC(C4)C2)C3)n1 | -20.0 | 119.6 | -1.7 | 107.9 | i | 0.96 | -6.7
Cc1cccc2c(Cl)cc(=O)[nH]c12 | 5.6 | 54.2 | -0.4 | 106.2 | i | 0.95 | 1.5
CCC(COC)NCc1cn(-c2ccc(F)cc2F)nc1-c1ccccc1C (configuration not stated) | x | x | x | 103.6 | i | 1.06 | -1.1
O=C(Nc1cccc2ncccc12)c1cc2ccccc2o1 | -34.6 | 47.3 | -2.5 | 97.2 | i | 0.957 | -5.3
CN(C(=O)c1ccc(C#N)cc1)c1nnc(-c2cnccn2)s1 | x | x | x | 96.9 | i | 0.88 | x
COC(=O)COc1c(Cl)cc(Cl)c2ccc(C)nc12 | 21.4 | 126.7 | x | 93.5 | i | 0.95 | -2.4
COc1ccc(NC(=O)c2sc(N3CCOCC3)nc2-c2ccccc2)c(OC)c1 | x | x | 2.3 | 98.7 | i | 0.97 | -1.2
COc1ccc(NS(=O)(=O)c2ccc(NS(C)(=O)=O)cc2)cc1 | -78.6 | 88.6 | 0.0 | 102.5 | i | 1.02 | 0.1
COc1ccccc1NC(=O)CCn1c(=O)sc2ccccc21 | -73.3 | 113.1 | -2.4 | 104.5 | i | 0.92 | -10.0
CCOC(=O)N1CCN(C(=O)c2ccc(Oc3ccc([N+](=O)[O-])cc3)cc2)CC1 | x | x | x | 100.7 | i | 1.07 | -4.3

Brought forward from above: 7 entries; new compounds follow.
Compound | Insulin prom inh | Insulin prom inh cell count | GALR2 agonist | RGS16-Gao HTS | HSV augment | HSV augment primary fold | PKD1 kinase inh
O=C(Nc1cccc2ncccc12)c1cc2ccccc2o1 | -34.6 | 47.3 | -2.5 | 97.2 | i | 0.957 | -5.3
CN(C(=O)c1ccc(C#N)cc1)c1nnc(-c2cnccn2)s1 | x | x | x | 96.9 | i | 0.88 | x
COC(=O)COc1c(Cl)cc(Cl)c2ccc(C)nc12 | 21.4 | 126.7 | x | 93.5 | i | 0.95 | -2.4
COc1ccc(NC(=O)c2sc(N3CCOCC3)nc2-c2ccccc2)c(OC)c1 | x | x | 2.3 | 98.7 | i | 0.97 | -1.2
COc1ccc(NS(=O)(=O)c2ccc(NS(C)(=O)=O)cc2)cc1 | -78.6 | 88.6 | 0.0 | 102.5 | i | 1.02 | 0.1
COc1ccccc1NC(=O)CCn1c(=O)sc2ccccc21 | -73.3 | 113.1 | -2.4 | 104.5 | i | 0.92 | -10.0
CCOC(=O)N1CCN(C(=O)c2ccc(Oc3ccc([N+](=O)[O-])cc3)cc2)CC1 | x | x | x | 100.7 | i | 1.07 | -4.3
CN(C)c1oc(-c2ccccc2Cl)nc1C#N | -8.3 | 123.2 | -0.4 | 95.3 | x | x | -1.0
COc1ccc(NC(=S)NCc2ccc(S(N)(=O)=O)cc2)cc1OC | 50.0 | 131.2 | x | 105.0 | i | 0.99 | -0.8
CC1CCN(c2nc3c(cc2C#N)COC(C)(C)C3)CC1 | x | x | x | 104.7 | i | 0.94 | -3.2
CN1CCN(c2ccc(CNC(=O)c3ccco3)cc2)CC1 | x | x | x | 98.8 | i | 1.03 | x
CCCc1nc2c(=O)n(C)c(=O)nc-2n(C)n1 | x | x | x | 101.0 | i | 0.7 | -6.0
CN1CCC(=NNC(=O)CN(c2cccc(Cl)c2)S(C)(=O)=O)CC1 | -71.4 | 106.1 | x | 106.7 | x | x | -1.6
O=C(Cn1c(=O)c2c(ncn2Cc2ccccc2)n(Cc2ccccc2)c1=O)N1CCCC1 | -35.7 | 88.2 | -1.9 | 102.1 | i | 0.92 | -4.3
CCC(CC)C(=O)c1c[nH]c(C(=O)OC)c1 | 53.9 | 86.2 | x | 100.4 | i | 0.94 | -5.3
N#C/C(=C\Nc1ccc(F)c(Cl)c1)S(=O)(=O)c1ccccn1 | x | x | x | 96.6 | i | 1.09 | x
Cc1ccc(-n2c(Cc3cccs3)nnc2SCC(N)=O)cc1 | x | x | -2.7 | 102.8 | i | 1.03 | -1.4
Cc1ccccc1C(=O)NC1CCN(Cc2nnnn2Cc2ccccc2)CC1 | -16.7 | 76.8 | -1.3 | 100.1 | i | 1 | -17.4
O=C(NCC(c1cccnc1)N1CCN(c2ccc(F)cc2)CC1)C1CCCCC1 (configuration not stated) | -85.7 | 66.5 | -2.6 | 102.5 | i | 1.03 | 4.8
CCC(=O)Nc1cc(-c2nn(C)c(=O)c3ccccc23)ccc1N1CCOCC1 | -33.3 | 133.3 | -0.9 | 85.4 | x | x | 0.7
Cc1cc(C(C)(C)C)cc(C)c1C(=O)O | x | x | x | 106.8 | i | 1.02 | x
Cc1cnn(C(=S)NCc2ccc(Cl)cc2)c1 | -37.8 | 66.2 | -1.5 | 98.0 | i | 0.8 | -5.2
CCOC(=O)C1(C)C=C(Nc2cccc(OC)c2)C(=O)N1c1ccccc1 (configuration not stated) | x | x | x | 97.5 | i | 1 | x
Cc1cccc2nc(CSc3ccc(Cl)cc3)cn12 | x | x | x | 97.6 | i | 1.08 | 2.1
COc1ccc(C2=NN(C(=O)CSc3nnc(C)c(=O)n3N)C(c3ccco3)C2)cc1 (configuration not stated) | x | x | x | 100.7 | i | 0.94 | 3.7
CCC12CN3CC(CC)(CN(C1)C3c1ccc([N+](=O)[O-])o1)C2=O (configuration not stated) | -57.1 | 116.6 | x | 105.0 | i | 0.96 | 8.5
CCOc1ccc(NC(=O)C2Cc3ccccc3CN2S(=O)(=O)CC)cc1 (configuration not stated) | -94.1 | 91.4 | x | 100.3 | i | 0.9 | -4.5
Cc1ccc(SCc2ccc(C(=O)Nc3cccc([N+](=O)[O-])c3)cc2)cc1 | 23.3 | 111.5 | -1.4 | 89.4 | i | 0.86 | 2.5
COc1ccc(C(=O)Nc2sc3c(c2C(=O)O)CC(C)(C)OC3)cc1 | -32.3 | 129.2 | 1.1 | 99.1 | i | 0.84 | -3.9
Cc1ccc(-c2nn(-c3ccccc3)cc2/C=C2\SC(=S)N(CC(=O)O)C2=O)cc1 | x | x | x | 49.5 | i | 0.8 | x
O=C(CN1C(=O)S/C(=C\c2ccccc2)C1=O)NNC(=O)c1ccccc1O | 24.1 | 116.1 | -0.3 | 104.7 | i | 0.94 | -1.3
CCN(CC)CCNc1nc2c(c(=O)n(C)c(=O)n2C)n1C/C=C(/C)Cl | x | x | -2.2 | 95.8 | i | 0.79 | 1.5
Cc1nc(SCC(=O)NCC(F)(F)F)c2c(-c3cccs3)csc2n1 | -112.2 | 106.2 | -0.4 | 102.5 | i | 1.03 | -7.2
Cc1ccc2c(ccc(=S)n2C)c1 | 17.6 | 99.1 | x | 100.7 | i | 0.93 | -7.0
O=C(/C=C/c1ccc(F)cc1)NCCCN1CCN(CCCNC(=O)/C=C/c2ccc(F)cc2)CC1 | 8.6 | 107.3 | 0.4 | 151.2 | i | 0.92 | 3.8
CCCNC1=C(C)C(=O)CC1 | x | x | -1.6 | 98.7 | i | 0.96 | 1.0
